Screening data deposited in PubChem by Center for Chemical Genomics, University of Michigan.
TAR Tat displ – HIV-1 TAR-Tat binding disruption. z-score (test concentration not listed). hit rate 0.6% among 100,000. HIV-1 TAR RNA, Tat peptide displacement FRET; hits give high values;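 further: score is relative to mean and SD of negative controls; some compounds called inactive have numbers as strong as hits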
CDC25B CDK2 inh – human CDC25B-CDK2/CyclinA binding inhibition; P30305+P24941; HTRF CDC25B-CDK2/CyclinA binding, anti-His/anti-Flag; hits give high values; z-score (concentration not given with the values); hit rate 0.72% among 94,000; AID 1259370;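 further: score is relative to mean and SD of negative controls; strong numbers were not always called active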
* marks the source's active call; other numbers are inactive results; / = not tested or not shown.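 How the source made its calls: active means z-score from 3 up in half or more of its runs; inactive means the rest.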

Sample of the layout, 2 compounds:
SMILES	TAR Tat displ	CDC25B CDK2 inh
Cc1cc(Nc2ncc3cc(-c4c(Cl)cccc4Cl)c(=O)n(C)c3n2)ccc1F	/	0.36
CS(=O)(=O)Nc1ccc(-c2noc(-c3cc4ccccc4[nH]3)n2)cc1	0.78	/

Main list, from the start:
SMILES	TAR Tat displ	CDC25B CDK2 inh
Cc1cc(Nc2ncc3cc(-c4c(Cl)cccc4Cl)c(=O)n(C)c3n2)ccc1F	/	0.36
CS(=O)(=O)Nc1ccc(-c2noc(-c3cc4ccccc4[nH]3)n2)cc1	0.78	/
CC1CCN(S(=O)(=O)N2CCCC(C(=O)NC3CCCCC3C)C2)CC1 (configuration not stated)	1.6	/
CCNC(=O)N1c2ccc(CC)cc2C(C)=CC1(C)C	-0.14	-0.14
COCCCNC(=O)c1noc2c1CCc1sccc1-2	0.78	/
O=C(CC1(O)C(=O)N(CCc2ccccc2)c2ccc(Br)cc21)c1cccs1 (configuration not stated)	-0.51	1.7
CC(C)(C)c1ccc(OCc2ncc(S(=O)(=O)c3ccccc3)c(N)n2)cc1	/	-0.1
Cc1ccc(C)c(Nc2nc3ccc(Cl)cc3n3nnnc23)c1	-0.01	-1.9
Cc1ccsc1-c1nc(CSCC(=O)N2CCN(c3ccccc3)CC2)c(C)o1	/	-0.19
CCOc1ccc(CNS(=O)(=O)c2c(C)nc3sc(C)cn3c2=O)cc1OC	-0.14	/
Cc1scc(CCNC(=O)NC2CCCC2)c1C	-0.15	/
O=C(CSc1nnc2ccc3ccccc3n12)Nc1nc(-c2ccccc2)ns1	/	0.04
CCSc1nnc(NC(=O)c2cc(=O)c3cc(C)cc(C)c3o2)s1	0	-0.3
Cc1ccc(-c2nn3c(C(C)(C)C)nnc3s2)cc1C	0.83	-0.44
CC(C)(CO)NC(=O)C1CC(c2cccc(Br)c2)=NO1 (configuration not stated)	-0.24	0.04
CC(=O)N1CCCc2cc(S(=O)(=O)N3CCCC(C(=O)NC4CCCC4)C3)ccc21 (configuration not stated)	0.15	/
COc1ccc(-n2nnnc2C2CCN(S(=O)(=O)c3cc(Cl)ccc3OC)CC2)cc1	1.6	0.85
CCOc1ccc(N2C(=O)C3N=NN(Cc4cc(=O)n5ccccc5n4)C3C2=O)cc1 (configuration not stated)	0.61	-0.03
Cc1ccccc1-c1noc2ncnc(NCCc3ccccc3)c12	0.44	/
O=C(NCc1ccc2c(c1)OCO2)C1CCCN1c1nnc(N2CCCC2=O)s1 (configuration not stated)	1.9	-2.9
O=C(c1ccc(NC2=NC3CS(=O)(=O)CC3S2)cc1)N(CCO)Cc1ccccc1 (configuration not stated)	0.65	/
COc1ccc(OC)c(CNc2nc3ccccc3n2CCN2CCCCC2)c1	1.1	0.29
O=C(O)CCCn1c(SCc2cc(=O)n3ccccc3n2)nc2ccsc2c1=O	/	-1.7
Cc1cccc(-n2cc(-c3ccccc3)c3c(NCc4ccco4)ncnc32)c1	0.91	/
Cc1ccc(Cl)cc1-n1nnc(-c2nc(-c3ccccc3F)no2)c1N	0.48	/
COCCCN(CCS(=O)(=O)N1CCNCC1)S(=O)(=O)c1ccc(F)cc1	2	/
CCN(CC)CCNc1cc(C)nc2c(-c3ccc(F)cc3)c(C(F)(F)F)nn12	-0.83	-0.39
CCn1c(=O)n(CC(=O)O)c(=O)c2c3c(sc21)COC(C)(C)C3	1.7	-1.3
O=C1C(=O)N(Cc2cccnc2)C(c2ccc(O)cc2)/C1=C(\O)c1ccc(Cl)cc1 (configuration not stated)	1.9	-0.8
O=C1CC(=O)Nc2cc(S(=O)(=O)N3CCOc4ccccc43)ccc2N1	0.64	/

Quoted at random: five entries already listed.
SMILES	TAR Tat displ	CDC25B CDK2 inh
COc1ccc(OC)c(CNc2nc3ccccc3n2CCN2CCCCC2)c1	1.1	0.29
CC1CCN(S(=O)(=O)N2CCCC(C(=O)NC3CCCCC3C)C2)CC1 (configuration not stated)	1.6	/
CCSc1nnc(NC(=O)c2cc(=O)c3cc(C)cc(C)c3o2)s1	0	-0.3
O=C(O)CCCn1c(SCc2cc(=O)n3ccccc3n2)nc2ccsc2c1=O	/	-1.7
O=C1CC(=O)Nc2cc(S(=O)(=O)N3CCOc4ccccc43)ccc2N1	0.64	/

Later entries
SMILES	TAR Tat displ	CDC25B CDK2 inh
CSc1nc(C)nc(Nc2cccc(C(F)(F)F)c2)c1C#N	/	-1.4
CC1Cc2cc(S(=O)(=O)NCc3cccs3)ccc2N1C(=O)C1CCC1 (configuration not stated)	-1.6	/
O=C(NC1CCCC1)N1CCN(Cc2nc3cccnc3n2-c2ccccc2)CC1	1.6	/
Cc1cc(-c2ccc(Cl)cc2)n2nc(N)nc2n1	-0.58	-1.1
CCCSc1nnc2c(n1)OC(c1cc(Br)c(Br)o1)Nc1ccccc1-2 (configuration not stated)	/	-0.59
O=C(Nc1c(-c2ccccc2)nc2ccccn12)c1ccco1	-0.01	-0.42
CCC1=C[C@@H]2CN(C1)Cc1c([nH]c3ccccc13)[C@@](C(=O)OC)(c1cc3c(cc1OC)N(C)[C@H]1[C@@](O)(C(=O)OC)[C@H](OC(C)=O)[C@]4(CC)C=CCN5CC[C@]31[C@@H]54)C2	0.61	/
CCC(CC)C(=O)Nc1ccc2nc(SCc3cc(=O)n4oc(C)cc4n3)sc2c1	0.78	/
CCS(=O)(=O)c1nc(S(=O)(=O)c2ccc(C)cc2)c(NCCCN2CCOCC2)s1	1.1	0.06
CN1C(=O)Cc2cc(NC(=O)C3CCCC3)ccc21	0.52	/
Cc1c(-c2nc(-c3ccc4c(c3)OCO4)no2)nnn1-c1ccc(C(C)C)cc1	0.48	/
COc1ccc(CCN=Cc2ccc(Oc3nccc(C(F)(F)F)n3)cc2)cc1OC	/	-0.77
CCC(C)OC(=O)C1=C(C)NC2=C(C(=O)CC(c3ccccc3)C2)C1c1ccc(O)cc1 (configuration not stated)	19	-0.86
COC(=O)c1sccc1NC(=O)C1CC(C)=C(C)CC1C(=O)O (configuration not stated)	/	-2.8
Cc1c(C(=O)C(=O)NCCN(C)C)c2ccccc2n1C	/	0.66
O=C(Nc1ccc(COc2ccccc2)cc1)Nc1cccc(C(=O)O)c1	/	-2.2
CCOC(=O)N1CCN(S(=O)(=O)N2CCCC(C(=O)O)C2)CC1 (configuration not stated)	-12	/
O=C(O)CCCCCn1c(=S)[nH]c2ccc(F)cc2c1=O	/	-0.71
CCc1ccc(S(=O)(=O)Nc2cccc(N3CCCS3(=O)=O)c2)s1	0.55	/
O=C(CN1C(=O)N(c2ccccc2)S(=O)(=O)c2ccccc21)Nc1ccccc1	0.49	/
O=C(NCCc1ccco1)C(=O)NCC(c1ccc2c(c1)OCO2)N1CCOCC1 (configuration not stated)	1.4	/
Cc1nc2cc(S(=O)(=O)N3CCC(C(=O)NCCN(C)C)CC3)ccc2n1C1CCCC1	0.41	1.4
O=C(NCc1ccncc1)c1ccc(-n2cccn2)cc1	/	-1.1
O=S(=O)(c1ccc2ccccc2c1)N1CCN(c2nc3ccccc3n3cccc23)CC1	1.2	-1.2
CCCc1ccc(/C=C/c2ccccc2)nc1	/	-0.89
CCn1nc(C)c(CCNC(=O)C2CCCN(c3nn4c(=O)c5c(nc4s3)CCCC5)C2)c1C (configuration not stated)	0.13	/
Cc1ccc(C2CC(=O)Nc3nc(SCc4ccccc4)[nH]c(=O)c32)c(C)c1 (configuration not stated)	1.4	1.3
COc1ccc(/C=C/c2nc(C#N)c(N3CCCC3)o2)cc1OC	-0.32	0.11
CC(C)CCNS(=O)(=O)c1ccc2c(c1)CC(C)N2C(=O)C1CC1 (configuration not stated)	-0.62	/
Cc1nc2nncn2c(NCc2ccccc2)c1C	-0.16	-2.6
O=C(Nc1ccccc1SCC(O)Cn1ccc2ccccc21)c1ccc(Cl)cc1 (configuration not stated)	/	-9.3
COc1ccc(NC(=O)c2cnc(SC)nc2C(F)(F)F)c(OC)c1	0.58	/
O=C(NCc1ccccn1)C(=O)NCC(c1ccco1)S(=O)(=O)c1ccc(F)cc1 (configuration not stated)	0.94	/
COc1ccc(OCc2nc3c4c5c(sc4ncn3n2)C(C)(C)NC(C)(C)C5)cc1	/	-3.2
O=C(c1cnc2sc(N3CCOCC3)nn2c1=O)N1CCN(c2cccc(Cl)c2)CC1	0.3	/
Cc1cc(C)n(-c2nc3c(c(=O)n2CC(=O)N2CCCCC2)CCCC3)n1	0.84	/
c1ccc(-c2nn3c(-c4ccccc4)nnc3s2)cc1	1.3	-1.6
O=C(Nc1c2c(nn1-c1ccc(F)cc1)CS(=O)(=O)C2)c1cc(Br)ccc1Cl	-0.51	/
CNC(=O)CSc1cn(CC(=O)N(C(C)C)C(C)C)c2ccccc12	0.17	/
CC(C)n1cc(NC(=O)C2CC(c3cccc(Br)c3)=NO2)cn1 (configuration not stated)	0.22	1.3
COc1ccc(C2CC(c3ccc(Cl)cc3)Nc3nc(N)nn32)cc1OC (configuration not stated)	-0.94	-0.43
COc1cc(Br)cc2c1Oc1nc(-c3cccc(O)c3)[nH]c(=O)c1C2	-0.36	-2.3
CCNC(=O)c1c(NC(=O)c2cc(=O)c3cc(C)cc(C)c3o2)sc2c1CCCC2	-0.49	-1.7
CC1=C(c2ccccc2)S(=O)(=O)NC1=NC(C)CCc1ccccc1 (configuration not stated)	0.18	-1.5
Cc1ccc(C)c(C(=O)Cn2cnc3onc(C)c3c2=O)c1	1.1	/
Cc1ccc(OCC(=O)OCc2cc(=O)n3nc(C4CCCCC4)sc3n2)cc1	0.24	/
COc1cccc(NS(=O)(=O)c2c(C)nc3sc4ccccc4n3c2=O)c1	-0.2	0.59
OCCn1c(SCCOc2ccc(Cl)cc2)nc2ccccc21	0.63	-1
CN1CCN(c2ncnc3scc(-c4ccc(Cl)cc4)c23)CC1	-0.41	/
Cc1ccccc1CN1C(=O)C(O)(CC(=O)c2ccccc2)c2ccccc21 (configuration not stated)	/	-0.53

Later entries
SMILES	TAR Tat displ	CDC25B CDK2 inh
CC1=C(C(=O)Nc2ccc(C(=O)NCC3COCCO3)cc2)SCCO1 (configuration not stated)	-0.94	/
O=S(=O)(NN1CCOCC1)c1sc(Cl)cc1Br	/	-1.1
Cc1cccc2nc(Cn3c(=O)n(CC(=O)NCc4ccco4)c(=O)c4sccc43)cc(=O)n12	/	0.12
COc1ccc(OC)c(N2C(=O)c3cccnc3C2Nc2ccccc2)c1 (configuration not stated)	2.5	/
O=C(C1CCN(c2ncnc3c2nc2n3CCCCC2)CC1)N1CCN(c2ccccn2)CC1	-1.4	/
CCC(=O)Nc1ccc2nc(SCC(=O)N3CCc4ccccc43)sc2c1	1.4	-1.3
CN(C)c1ccc(C(=O)CC2(O)C(=O)N(Cc3ccc(Cl)cc3)c3ccccc32)cc1 (configuration not stated)	2	-4
O=C(CCS(=O)(=O)c1cc2c3c(c1)CCN3C(=O)CC2)Nc1cccc(Br)c1	1.2	/
CCCCC(=O)N(c1ccc(F)cc1)C1C=CS(=O)(=O)C1 (configuration not stated)	1.4	-0.96
NC(=O)C1CCN(S(=O)(=O)Cc2ccc(Cl)cc2)CC1	/	0.41
Cc1nc(C)c(S(=O)(=O)NCc2c(-c3ccccc3)noc2C)s1	/	-1.6
Cc1ccc2occ(CC(=O)N(Cc3ccc(F)cc3)C3CCS(=O)(=O)C3)c2c1 (configuration not stated)	2.1	-2.4
COc1cc2ccccc2cc1C(=O)Nc1cccc(-c2nc3cc(C)ccc3o2)c1	/	-7.1
Cc1ccc(NC(=O)C(=O)NCc2ccc(/C=N\NC(=O)C(=O)Nc3cc(Cl)ccc3C)o2)cc1C	/	-1.3
Cc1cccc(NC(c2ccc(Br)cc2)c2ccc3cccnc3c2O)n1 (configuration not stated)	/	0.48
CCN1CNC(=S)N(c2ccc(F)cc2)C1	/	0.55
COc1ccc(-c2ccnc(SCc3c(F)cccc3Cl)n2)cc1	/	-1
COc1ccc(C(O)(c2ccccc2OC)c2ccc(OC)cc2OC)c(OC)c1	1.3	-0.17
Cn1c(=O)oc2cc(S(=O)(=O)N3CCN(C(=O)c4ccco4)CC3)ccc21	1.1	-0.31
CCCCN(Cc1ccco1)S(=O)(=O)c1ccc(-c2ccc(=O)[nH]n2)s1	-0.97	/

Some of the entries so far, bar-delimited:
Structure | TAR Tat displ | CDC25B CDK2 inh
Cc1ccc2occ(CC(=O)N(Cc3ccc(F)cc3)C3CCS(=O)(=O)C3)c2c1 (configuration not stated) | 2.1 | -2.4
Cc1ccc(NC(=O)C(=O)NCc2ccc(/C=N\NC(=O)C(=O)Nc3cc(Cl)ccc3C)o2)cc1C | / | -1.3
CCCCN(Cc1ccco1)S(=O)(=O)c1ccc(-c2ccc(=O)[nH]n2)s1 | -0.97 | /

One compound at a time, from the list above. Order of screens: TAR Tat displ	CDC25B CDK2 inh
Entry for O=C(NCc1ccc2c(c1)OCO2)C1CCCN1c1nnc(N2CCCC2=O)s1 (configuration not stated) : 1.9	-2.9
Entry for COc1ccc(CCN=Cc2ccc(Oc3nccc(C(F)(F)F)n3)cc2)cc1OC : /	-0.77
Entry for COc1cc(Br)cc2c1Oc1nc(-c3cccc(O)c3)[nH]c(=O)c1C2 : -0.36	-2.3

Following part
SMILES	TAR Tat displ	CDC25B CDK2 inh
COCc1c(Br)c(C)nc2sc3c(=O)n(Cc4ccco4)nnc3c12	-0.06	-2.8
O=C(Nc1ccccc1)N1CCCC2CCCCC21 (configuration not stated)	1.4	-0.82
CCCNc1nc(N2CCOCC2)c2cnn(C)c2n1	2.4	/
Cc1cc(C)c(NC(=O)c2cccc(N3C(=O)c4ccc(C(=O)Nc5c(C)cc(C)cc5C)cc4C3=O)c2)c(C)c1	/	-1.9
COc1ccc(-c2cccc(NS(=O)(=O)c3cc(C)c(C)cc3OC)c2)nn1	1.1	/
CC(C)(C)c1csc(CS(=O)(=O)c2cccs2)n1	/	-2
O=C1c2cccc3cccc(c23)C(=O)N1CC1CCN(S(=O)(=O)c2cccs2)CC1	/	-4.5
NC(=O)c1cc(S(=O)(=O)Nc2cccc(Cl)c2)cs1	1.1	/
COc1ccc(-c2nc3n(n2)C(c2ccc4c(c2)OCO4)C2=C(CCCC2=O)N3)cc1OC (configuration not stated)	0.56	-0.92
CN(C)S(=O)(=O)c1ccc2c(c1)NC(=O)C1CCCCN21 (configuration not stated)	0.86	/

Outcome played no part in choosing rows (roughly 0.9% active in at least one column).
